Mtb hypoxia rep: inhibitors of hypoxia-regulated fluorescent reporter in Mycobacterium tuberculosis. M. tuberculosis hypoxia-regulated fluorescent reporter, fluorescence. fluorescence inhibition, % (no concentration beside the values). actives 0.1% (n = 300,000). AID 1159583;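 active means 35 to 45% if threefold the growth effect, above 45% if 1.5-fold the growth effect; inactive means the rest, general growth blockers included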;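 further: wells of about 50 µL received 100 nL stock; 0% = vehicle wells and 100% = reference inhibitor wells; whole bacteria with a GFP reporter of the hypoxia response; strong numbers were not always called active; many hits fall short of the cut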
BJeLR lethal: BJeLR cell viability loss. BJeLR (HRASV12) viability, CellTiter-Glo ATP luminescence, 48 h; reference of the scale not given here. inhibition, % (concentration not given with the values). actives 0.17% (n = 300,000). AID 1554;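 active means replicate mean above 50%; inconclusive means above 50% but judged a plate artefact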;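 further: 50 nL library stock added to about 25 µL; numbers are from one replicate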
Sa ugtP lethal: growth inhibition of S. aureus ugtP deletion strain. S. aureus RN4220 ugtP deletion, OD600 growth, 16 h; some inactives read as strong as hits. growth inhibition, % (test concentration not listed). actives 0.54% (n = 330,000). AID 1259309;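 active means z-score under -3 and OD600 up to 0.15 on both plates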;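 further: plate controls were untreated wells for no effect and antibiotic for full effect; wells of about 80 µL received 100 nL stock; the first replicate is given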
Bead autofluor: flagged as autofluorescent in microsphere protease counterscreen | compound autofluorescence counterscreen, microsphere flow cytometry; stronger effect = higher value | fluorescence intensity (test concentration not listed) | actives 3.1% (n = 360,000);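 active means at least 3 SD above the mean of all compounds, about 16000 in these data; inconclusive means too few beads counted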;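 further: 100 nL of 1 mM stock went into each well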
PrP 5UTR inh: suppresses PrP 5' UTR mRNA reporter expression. cell-based PrP 5' UTR mRNA reporter, plate reader. inhibition, % (test concentration not listed). actives 0.35% (n = 340,000). AID 488862;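 active means every replicate at 50% or more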;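 further: 0 = median of the neutral control wells; tested in H4 reporter cells; numbers are from one replicate; inactives centre near -14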
Sa RN4220 lethal: S. aureus RN4220 growth inhibition; actives 0.33% (n = 330,000); inhibition, % (test concentration not listed); OD600, 16 h; AID 1259311;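 active means z-score of -3 or lower and OD600 up to 0.18 on both plates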;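 further: plate controls were untreated cells for no effect and reference antibiotic for full effect; stock transfer was 100 nL into about 80 µL; one replicate is shown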
Mtb hypoxia rep growth: further read-out of Mtb hypoxia rep, marked with its call; growth inhibition, %; measured here: M. tuberculosis growth (absorbance);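 0% = vehicle and 100% = reference antibiotic; read after six days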
Active calls of the source: *; ? = inconclusive; . = not tested or not shown; & = joins results of further samples.

SMILES	Mtb hypoxia rep	Mtb hypoxia rep growth	BJeLR lethal	Sa ugtP lethal	Bead autofluor	PrP 5UTR inh	Sa RN4220 lethal
Cc1ccccc1CSc1nccn1-c1ccccc1	.	.	-2	5	3517	-22	5.2
Cc1ccc(C)c(OCC(=O)O/N=C(\N)c2ccccn2)c1	-3	4	0	-4	4204	-81	-7.5
CCOC(=O)c1cc2sc(C)cc2n1CC(=O)NCCc1ccccc1	4	-1	2	16	12259	-18	5.3
O=[N+]([O-])c1ccccc1S(=O)(=O)Nc1cccc(S(=O)(=O)N2CCCC2)c1	-9	-14	.	-2	3996	2	9.2
CCn1ccc(C(=O)Nc2sc3c(c2C(=O)OC)CCC3)n1	3	19	.	-5	5901	-6	-3.5
CCS(=O)(=O)N1CCCC(C(=O)NCCCOC(C)C)C1 (stereo unspecified)	8	13	-8	1	3119	1	-0.6
COc1ccc(C=NNC(=O)c2cccc(OC(F)(F)C(F)F)c2)c(OC)c1OC	-5	-3	.	4	.	.	4.4
COc1ccc(CN2CCCC(C(=O)c3cccc(Cl)c3)C2)cc1 (stereo unspecified)	-6	4	-6	5	4295	3	-2.0
COc1cc(CN2CCC(C(=O)N3CCN(c4ccccc4F)CC3)CC2)cc(OC)c1OC	11	1	-3	15	16517*	-11	8.0
O=C(NC1CC2CCCC(C1)N2C(=O)Nc1ccccc1)c1ccncc1 (stereo unspecified)	1	8	-10	3	3889	-12	5.1
COc1cc(-c2nn3c(COc4ccccc4)nnc3s2)cc(OC)c1OC	0	-3	0	-6	23486*	-11	0.0
Cc1cccc(NC(=O)CCNS(=O)(=O)c2cccc3nonc23)c1	0	17	5	-1	3397	8	5.5
Cc1ccc2c(c1)C(=O)N1C3c4cc(Br)ccc4OCC3C(c3ccccc3)[C@]1(C)C(=O)N2 (stereo partly specified)	-3	4	.	-16	.	.	-3.8
COC(=O)C1CCN(C(c2cccs2)c2sc3nc(C)nn3c2O)CC1 (stereo unspecified)	-5	4	8	0	6299	2	-0.4
O=C(O)c1cccc2c1C(=NO)c1ccccc1-2	-2	-3	.	-11	.	.	0.6
O=C(Oc1ccccc1)Oc1ccc2c(c1)oc(=O)c1ccccc12	.	.	5	-10	4832	-13&-42	13
O=C1CC(NS(=O)(=O)c2cc(F)ccc2F)CN1c1cccc(F)c1 (stereo unspecified)	5	7	6	2	.	1	2.5
CCOC(=O)C1CCCN(S(=O)(=O)c2ccc3c(c2)CC(C)N3C(=O)C2CC2)C1 (stereo unspecified)	4	5	-7	2	5985	-6	3.2
CC1CN(C(C)CO)C(=O)c2cccc(NC(=O)c3ccncc3)c2OC1CN(C)C(=O)Nc1ccc2c(c1)OCO2 (stereo unspecified)	9	11	.	-3	.	.	4.1
O=C(CNC(=O)c1ccco1)NN=Cc1c[nH]c2ccccc12	8	17	.	6	.	.	1.7
CCC(C)NC(=O)c1ccc(N2CC3CC(C2)c2cccc(=O)n2C3)c(NC(=O)c2ccc(Br)o2)c1 (stereo unspecified)	7	1	6	7	5895	-10	0.9
CC(CCc1ccccc1)NC(=O)C(Cc1ccccc1)NC(N)=O (stereo unspecified)	3	4	7	8	6076	-11	1.0
CN1C(=O)NC(c2ccc(C(F)(F)F)cc2)C2=C1CC(C)(C)CC2=O (stereo unspecified)	-9	-2	-11	7	3669	-4	2.5
CNS(=O)(=O)c1ccc(N=Cc2c(O)n(-c3ccccc3)c(=O)[nH]c2=O)cc1	-5	-8	5	1	3776	-12	2.3
CCn1ncc(NC(=S)NCCc2ccc(OC)c(OC)c2)c1C(N)=O	2	7	.	-8	4417	9	-2.9
O=C(Cc1n[nH]c(=O)[nH]c1=O)NN=Cc1ccccc1O	17	6	.	12	.	.	5.9
Cn1cc(Br)c(C(=O)NN2C(=O)C3C4C=CC(C5CC45)C3C2=O)n1 (stereo unspecified)	7	9	19	8	4604	-24	5.8
N/C(=N\OC(=O)c1cccc(Br)c1)c1ccccc1	4	9	-11	12	8427	-67	3.3
Cc1ccc(N(CC(=O)NCCSc2nc3ccccc3s2)S(=O)(=O)c2ccccc2)c(C)c1	-4	-3	3	-22	8687	-22	-0.9
O=c1ccsc2ccccc12	-5	5	.	1	3809	.	3.0

Another view of part of the listing above:
Order of values: Mtb hypoxia rep	Mtb hypoxia rep growth	BJeLR lethal	Sa ugtP lethal	Bead autofluor	PrP 5UTR inh	Sa RN4220 lethal
- Cc1ccc(C)c(OCC(=O)O/N=C(\N)c2ccccn2)c1
  -3	4	0	-4	4204	-81	-7.5
- CCOC(=O)c1cc2sc(C)cc2n1CC(=O)NCCc1ccccc1
  4	-1	2	16	12259	-18	5.3
- O=[N+]([O-])c1ccccc1S(=O)(=O)Nc1cccc(S(=O)(=O)N2CCCC2)c1
  -9	-14	.	-2	3996	2	9.2
- CCn1ccc(C(=O)Nc2sc3c(c2C(=O)OC)CCC3)n1
  3	19	.	-5	5901	-6	-3.5
- CCS(=O)(=O)N1CCCC(C(=O)NCCCOC(C)C)C1 (stereo unspecified)
  8	13	-8	1	3119	1	-0.6
- COc1ccc(C=NNC(=O)c2cccc(OC(F)(F)C(F)F)c2)c(OC)c1OC
  -5	-3	.	4	.	.	4.4

Next part.
SMILES	Mtb hypoxia rep	Mtb hypoxia rep growth	BJeLR lethal	Sa ugtP lethal	Bead autofluor	PrP 5UTR inh	Sa RN4220 lethal
CCCCC1(C)NC(=O)N(CC(=O)Nc2cc(S(=O)(=O)N3CCOCC3)ccc2Cl)C1=O (stereo unspecified)	11	4	.	-3	.	.	-2.0
O=C(c1ccc(F)cc1)N1CCC(C(=O)N2CCN(Cc3ccc4c(c3)OCO4)CC2)CC1	2	1	13	4	4246	0	2.5
CC1(C)C(=O)Nc2ccccc2N1C(=O)COC(=O)CSc1ccc(F)cc1	1	5	.	-1	3954	-3	3.4
CCc1ccc(NC(=O)c2cnn(-c3ccccc3)c2C2CCNCC2)cc1	-7	8	11	6	2613	-14	3.1
CNC(=O)CSc1n[nH]c(-c2cc(Cl)ccc2OC)n1	4	19	-5	6	4131	4	2.3
COc1ccc(-c2cc(CNC(=O)CCl)on2)cc1	.	.	-3	33	?	-1	29
Cc1ccc(-c2noc(CSc3nnc(-c4ccncc4)n3-c3ccc(C)cc3)n2)cc1	-6	2	-7	-6	24919*	-3	6.1
COc1cc(Br)cc(/C=N/NC(=O)Cc2ccc(C(F)(F)F)cc2[N+](=O)[O-])c1O	.	.	1	.	9429	-22	.
O=c1c2ccccc2c(-c2ccc(Br)cc2)nn1Cc1ccccc1	3	9	-8	5	2977	-16	-7.0
CC(=NNC(=O)c1ccccn1)c1ccc(O)cc1	7	1	.	0	.	.	2.7
O=C(CN1CCN(c2ncccn2)CC1)NCCC1=CCCCC1	4	1	6	0	9093	0	3.0
CCOCCCNC(=O)CSCc1nc(-c2ccc(SC)cc2)oc1C	-1	5	3	-1	2663	-13	0.7
COc1ccc(CC(=O)Nc2ccc(-c3nnc(-c4ccccc4)o3)cc2)cc1	0	3	.	-7	3072	2	-18
COc1cnc(-c2ccccn2)nc1Oc1ccc(C(C)(C)C)cc1	26	24	11	9	6223	13	4.0
CC(C)c1ccc(C2/C(=C(/O)c3ccccc3)C(=O)C(=O)N2CCCN2CCOCC2)cc1 (stereo unspecified)	17	1	-6	6	4330	-14	3.9
COc1ccc(CN2CCN(Cc3cccc(F)c3)CC2)cc1OC	8	3	-4	18	3777	-36	2.8
Cc1noc(C)c1COC(=O)/C=C/c1ccc(Cl)cc1	14	5	6	17	5309	0	11
CCCCNC(=O)c1cc(S(=O)(=O)N2CCCCC2)oc1C	4	-4	-7	1	6466	-21	0.3
CC(C(=O)NCc1ccco1)n1cc(C(=O)c2ccco2)c2ccccc21 (stereo unspecified)	7	15	7	-9	3020	-28	-1.5
O=C(Nc1ccc(Cl)cc1F)C1CCCN(C2=NS(=O)(=O)c3ccccc32)C1 (stereo unspecified)	12	1	.	8	4592	-21	3.3

Two entries from above, as comma-separated lines.
SMILES,Mtb hypoxia rep,Mtb hypoxia rep growth,BJeLR lethal,Sa ugtP lethal,Bead autofluor,PrP 5UTR inh,Sa RN4220 lethal
Cc1ccc(-c2noc(CSc3nnc(-c4ccncc4)n3-c3ccc(C)cc3)n2)cc1,-6,2,-7,-6,24919*,-3,6.1
COc1cc(Br)cc(/C=N/NC(=O)Cc2ccc(C(F)(F)F)cc2[N+](=O)[O-])c1O,.,.,1,.,9429,-22,.

(listing goes on)
SMILES	Mtb hypoxia rep	Mtb hypoxia rep growth	BJeLR lethal	Sa ugtP lethal	Bead autofluor	PrP 5UTR inh	Sa RN4220 lethal
Cc1noc(C)c1COc1ccccc1C(=O)Nc1ccc(C(N)=O)cc1	-4	-5	.	-3	2978	-6	-0.7
CC(C(=O)NCc1ccc(F)cc1)c1ccc([N+](=O)[O-])cc1 (stereo unspecified)	0	1	-2	-1	2133	-20	4.2
CC(=O)c1cccc(NC(=O)c2ccccc2OCc2ccc(F)cc2)c1	-9	10	-11	-7	3813	-21	3.3
COc1ccc(NC(=S)NC(C)c2ccncc2)cc1OC (stereo unspecified)	2	8	-6	0	3330	-8	0.2
CC(=O)NC12CC3CC(C1)CC(C(=O)Nc1cccc(S(=O)(=O)N4CCCCCC4)c1)(C3)C2	-6	4	.	3	3491	2	7.4
CC(=O)OCc1c(-c2ccccc2)c2cc([N+](=O)[O-])ccc2n1C	16	9	-2	-12	3321	.	-3.4
COc1cccc2c(C)nc(Nc3nc(CSc4nnc(C)s4)cc(=O)[nH]3)nc12	-1	2	3	1	3194	-2	3.4
C/C(N)=C(/C#N)C(=O)CSc1nc2ccccc2c(=O)n1-c1ccccc1C	1	8	6	7	2020	-10	-4.0
CC(C)(C)n1nnnc1C(c1cccnc1)N1CCN(c2ccccc2F)CC1 (stereo unspecified)	7	8	-5	-6	3284	-20	-18
COc1ccc(-n2nc(C(=O)NCC(=O)N3CCC(C(N)=O)CC3)c3ccccc3c2=O)cc1OC	17	1	-2	-4	5522	-8	-0.4
COC(=O)c1cc(OC)c(OC)cc1NC(=O)CN1C(=O)c2ccccc2C1=O	4	10	-11	-3	5556	-16	4.4
O=C(NCCc1ccccc1)C(=O)NCC1CCCN1S(=O)(=O)c1ccccc1 (stereo unspecified)	3	20	18	6	5933	-23	3.8
Cc1cc(C)nc(NS(=O)(=O)c2ccc(NC(=O)NC3CCCCC3)cc2)n1	5	-1	6	11	8592	-9	4.7
CC1CN(C(=O)CN(C)S(=O)(=O)c2ccc3ccccc3c2)CC(C)O1 (stereo unspecified)	6	3	1	5	3761	4	1.6
NC1=C([N+](=O)[O-])C(c2ccc3c(c2)OCO3)C2=C(CCCC2=O)O1 (stereo unspecified)	-17	-8	2	-3	3769	-42	-0.4
O=C(Nc1ccccc1)N1CCN(c2ccc(C(F)(F)F)cn2)CC1	10	8	-5	10	6568	-15	0.1
O=C(COC(=O)CC1c2ccccc2CCN1S(=O)(=O)c1ccccc1)Nc1ccccc1 (stereo unspecified)	6	13	-13	7	2446	-11	3.1
Cn1cc(Br)c(C(=O)NNC(=O)c2cccc(Br)c2)n1	.	.	-14	-3	3110	5	1.4
COC(=O)c1ccccc1NC(=O)CN(c1c(C)cccc1C)S(C)(=O)=O	8	12	5	1	4126	-3	2.5
NS(=O)(=O)c1cccc(NC(=O)c2cc(-c3cccs3)nc3ccccc23)c1	4	4	-4	15	5773	-21	-2.2
Cc1ccc(C(=O)NC(=S)N2CCCCCC2)cc1	5	8	.	6	5985	-14	2.1
Cc1noc(C)c1S(=O)(=O)N1Cc2ccccc2CC1C(=O)N(C)C (stereo unspecified)	8	2	-1	0	4054	-27	-1.6
Cc1[nH]c2ccccc2c1NC(=O)CN1CCN(c2cccc(C(F)(F)F)c2)CC1	2	-1	.	-21	2939	-5	4.1
Cc1ccc(-n2nnnc2SCC(=O)N2CCN(C(=O)c3ccco3)CC2)c(C)c1	16	7	-5	-5	3329	-15	-12
S=C(NC1CC1)N1CCN(c2ccc(Cl)cc2)CC1	12	16	-2	-1	2319	-9	2.1
Cc1cccc(Cl)c1NC(=S)NN	-11	-3	-8	1	4211	-14	6.8
CC(C)(CNC(=O)c1cccc(S(=O)(=O)NCc2ccccc2)c1)N1CCOCC1	13	6	-3	7	?	1	5.0
CCC(C)Sc1ccc(-c2nc3ccc(Cl)cn3c2NCc2ccccc2)cc1 (stereo unspecified)	6	7	.	-16	3813	-25	-0.9
CCN(C[C@H]1N[C@@](CC)(C(=O)OC)[C@H]2C(=O)N(C)C(=O)[C@@H]12)C(=O)Nc1ccc(OC)cc1	-1	-3	.	5	2866	-34	2.8
CC12CCC(=O)N1C(C(=O)N1CCN(c3cccc(Cl)c3)CC1)CS2 (stereo unspecified)	7	3	.	5	3792	-30	8.5
